BJeLR lethal: kills HRASV12-expressing BJeLR cells; 300,000 tested, 0.17% active; inhibition, % (no concentration beside the values); BJeLR (HRASV12) viability, CellTiter-Glo ATP luminescence, 48 h; reference of the scale not given here;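 active means replicate mean above 50%; inconclusive means above 50% but judged a plate artefact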;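 further: 50 nL library stock added to about 25 µL; numbers are from one replicate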
Sa RN4220 lethal: kills Staphylococcus aureus RN4220 | S. aureus RN4220 growth, OD600, 16 h | inhibition, % (concentration not given with the values) | 330,000 tested, 0.33% active | AID 1259311;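 active means z-score of -3 or lower and OD600 up to 0.18 on both plates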;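 further: plate controls were untreated cells for no effect and reference antibiotic for full effect; stock transfer was 100 nL into about 80 µL; one replicate is shown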
Sa ugtP lethal: growth inhibition of S. aureus ugtP deletion strain | S. aureus RN4220 ugtP deletion, OD600 growth, 16 h; some inactives read as strong as hits | growth inhibition, % (no concentration beside the values) | 330,000 tested, 0.54% active | AID 1259309;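 active means z-score under -3 and OD600 up to 0.15 on both plates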;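 further: plate controls were untreated wells for no effect and antibiotic for full effect; wells of about 80 µL received 100 nL stock; the first replicate is given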
Autofluor counter: flagged as autofluorescent in microsphere protease counterscreen; compound autofluorescence counterscreen, microsphere flow cytometry; stronger effect = higher value; 360,000 tested, 3.1% active; fluorescence intensity (concentration not given with the values);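 active means at least 3 SD above the mean of all compounds, about 16000 in these data; inconclusive means too few beads counted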;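 further: 100 nL of 1 mM stock went into each well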
PrP UTR inh: suppresses PrP 5' UTR mRNA reporter expression | cell-based PrP 5' UTR mRNA reporter, plate reader | inhibition, % (test concentration not listed) | 340,000 tested, 0.35% active;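 active means every replicate at 50% or more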;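 further: 0 = median of the neutral control wells; tested in H4 reporter cells; numbers are from one replicate; inactives centre near -14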
Mtb hypoxia rep: inhibitors of hypoxia-regulated fluorescent reporter in Mycobacterium tuberculosis; M. tuberculosis hypoxia-regulated fluorescent reporter, fluorescence; fluorescence inhibition, % (test concentration not listed); 300,000 tested, 0.1% active; AID 1159583;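 active means 35 to 45% if threefold the growth effect, above 45% if 1.5-fold the growth effect; inactive means the rest, general growth blockers included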;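 further: wells of about 50 µL received 100 nL stock; 0% = vehicle wells and 100% = reference inhibitor wells; whole bacteria with a GFP reporter of the hypoxia response; strong numbers were not always called active; many hits fall short of the cut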
Mtb hypoxia rep growth: second read-out of Mtb hypoxia rep, no call of its own (marks repeat the call); growth inhibition, %; measured here: M. tuberculosis growth (absorbance);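 0% = vehicle and 100% = reference antibiotic; read after six days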
The depositor's hits bear a star; ? = inconclusive; / = no result given.

Structure	Autofluor counter	Sa RN4220 lethal	Sa ugtP lethal	PrP UTR inh	BJeLR lethal	Mtb hypoxia rep	Mtb hypoxia rep growth
Cc1ccc(-n2cccn2)c(CN2CCC(CO)(CCc3ccccc3)CC2)c1	4230	3.4	4	-9	-2	-3	12
CCn1cc(C(=O)NCC2CCCO2)c2cc(OC)c(OC)cc2c1=O (stereo unspecified)	4545	-0.5	-1	-15	-2	5	3
Cc1cccc(N2CCN(C(=O)c3ccccn3)CC2C)c1 (stereo unspecified)	4091	0.7	2	8	8	11	15
O=c1/c(=C\c2ccc(F)cc2)sc2n1CCCN=2	1971	/	/	-77	3	/	/
CCCCc1cc(=O)oc2cc(OCc3nn[nH]n3)c(Cl)cc12	2435	3.3	0	-22	1	/	/
O=C(O)C1CCCN1S(=O)(=O)c1ccc(Cl)cc1 (stereo unspecified)	3194	0.8	6	/	1	13	-4
CCC(=O)NC(=S)Nc1ccc(NC(=O)c2ccc(OC)cc2)cc1	2459	4.7	-8	-102	-4	/	/
Cc1ccc2nc(-c3cccs3)oc(=O)c2c1	3273	-1.3	8	11	2	17	12
COc1ccc(N2CCN(C(=S)NCc3ccccc3)CC2)cc1	3869	23	8	-8	6	-9	-6
COc1ccc(-c2csc3nc(-c4cccnc4)nc(N4CCC(C(N)=O)CC4)c23)cc1OC	1950	-0.6	-14	-18	-7	-1	1
CCCCNC(=O)CC1S/C(=N/N=C/c2ccc(OC)cc2)NC1=O (stereo unspecified)	3862	/	/	-23	-9	/	/
S=C(NCC1CCCO1)N1CCN(Cc2ccccc2Cl)CC1 (stereo unspecified)	4519	3.2	2	-37	-2	3	2

Next part:
Structure	Autofluor counter	Sa RN4220 lethal	Sa ugtP lethal	PrP UTR inh	BJeLR lethal	Mtb hypoxia rep	Mtb hypoxia rep growth
Cc1ccc(NC2CC(=O)N(c3cccc([N+](=O)[O-])c3)C2=O)cc1 (stereo unspecified)	3836	2.5	1	-2	2	9	0
CCOC(=O)C(C)Sc1nc(C2CC2)cc(C(F)(F)F)c1C#N (stereo unspecified)	2530	6.6	76	-9	-1	2	6
C=CCn1cc(CN2CCC(C(=O)Nc3ccc(Oc4cccnc4)cc3)CC2)c(C)n1	6051	-2.4	5	1	7	2	1
CC1CCN(C(=O)CCNS(=O)(=O)c2ccccc2)CC1	16042	-2.0	-3	-12	-2	-8	-9
CC(=O)C1=C(c2ccccc2)NC(=O)NC1c1ccccc1OCC(=O)NCc1ccccc1 (stereo unspecified)	11270	3.8	2	/	-5	6	8
COc1ccccc1N1CCN(S(=O)(=O)CCNC(=O)C2CC(=O)N(c3ccccc3)C2)CC1 (stereo unspecified)	5667	2.3	2	-7	6	-8	-6
CN(C)CCSc1nc(N)c2c3c(sc2n1)CN(C)CC3	3948	/	/	-27	-2	/	/
CC(C)N(Cc1ccccc1)C(=O)COC(=O)c1ccc2ncsc2c1	7988	2.4	5	-14	/	1	4
CC1CN(C)C(C)C/C1=N/Oc1ccccc1[N+](=O)[O-] (stereo unspecified)	4268	/	/	-16	2	/	/
Cc1ccc(C)c(Cn2c3ccccc3c3cnn(CC(=O)NCCCN4CCOCC4)c(=O)c32)c1	4734	-1.2	-3	8	2	0	15
O=C(CSc1nnc(-c2cccc(S(=O)(=O)N3CCOCC3)c2)n1C1CCCCCC1)NCc1ccccc1	12345	8.6	4	/	-4	0	4
COc1nc(N)c(C#N)c(-c2ccc(N(C)CCC#N)cc2)c1C#N	?	6.4	2	-5	0	-7	4

(more compounds)
Structure	Autofluor counter	Sa RN4220 lethal	Sa ugtP lethal	PrP UTR inh	BJeLR lethal	Mtb hypoxia rep	Mtb hypoxia rep growth
COC1=CC2(O)CCCC2=CC1=O (stereo unspecified)	3825	/	/	-1	1	/	/
COc1cc(OC)cc(-c2c(-c3cccs3)c3cc(-c4ccc(SC)cc4)ccc3n2C)c1	3830	9.0	0	-8	/	-1	1
Cc1ccc(N2C(N)=NC(N)=NC2(C)C)c(C)c1	4235	2.1	6	-12	0	/	/
CCOC(=O)C1=C(c2ccccc2)Nc2c(c(=O)n(C)c(=O)n2C)C1c1ccc(O)c(OC)c1 (stereo unspecified)	?	3.3	4	-16	-4	0	3
OCC1(CCOc2ccccc2)CCN(C2Cc3ccccc3C2)CC1	2590	2.3	1	-8	-5	9	2
O=C(c1ccccn1)C1CCCN(Cc2nc(Cc3cccc(F)c3)no2)C1 (stereo unspecified)	4457	3.7	11	-7	1	10	11
CCOC(=O)CCC(=O)Nc1cccc([N+](=O)[O-])c1	2109	3.5	4	-14	-15	4	7
Oc1ccccc1N1CCN(c2nc(-c3cccs3)nc3ccccc23)CC1	4695	-5.1	-10	-11	0	10	16
CCOC(=O)c1c(NC(=O)COC(=O)Cn2cnc3ccccc32)sc(C)c1C	3705	4.1	-2	-14	-11	23	19
CC1(C(=O)OCC(=O)Nc2ccc(Cl)cn2)CC1(Cl)Cl (stereo unspecified)	3113	6.0	11	-22	/	23	31
CN(C(Cc1ccc(OS(=O)(=O)c2cccc3cnccc23)cc1)C(=O)N1CCN(c2ccccc2)CC1)S(=O)(=O)c1cccc2cnccc12 (stereo unspecified)	/	7.4	-7	/	/	-5	1
O=C(CC1SC(=O)N(Cc2ccc(Cl)cc2)C1=O)Nc1nccs1 (stereo unspecified)	7860	/	/	-11	5	/	/

New compounds follow.
Structure	Autofluor counter	Sa RN4220 lethal	Sa ugtP lethal	PrP UTR inh	BJeLR lethal	Mtb hypoxia rep	Mtb hypoxia rep growth
CCN1C(=O)/C(=C2\SC(N3CCOCC3)=NC2=O)c2ccccc21	3609	2.4	3	-15	17	-10	7
CC1(C)CN=C(NCc2ccccc2Cl)S1	?	1.2	7	-20	1	-7	-5
COC(=O)Cn1cc(/C=C(/C#N)C(=O)N2CCOCC2)c2ccccc21	4450	4.5	2	-16	6	16	3
S=C(Nc1ccccc1)c1ccccn1	3024	-5.2	0	-82	-6	11	-16
COC(C(=NO)c1ccc(Cl)cc1)c1ccccc1 (stereo unspecified)	/	-5.9	20	/	/	-7	1
O=C(CCC(=O)N1C[C@H]2C[C@@H](C1)c1cccc(=O)n1C2)NCc1ccc(F)cc1	5184	2.7	3	-1	/	10	12
CC1CN(C(=O)c2ccc3c(c2)OCO3)OC(c2ccccc2)O1 (stereo unspecified)	2633	3.1	6	-5	4	/	/
CCn1cc(C(=O)NCCCN(C)c2ccccc2)c(=O)c2cc(S(=O)(=O)N(C)C)ccc21	6032	1.8	12	-6	-10	/	/
CC(=O)Nc1ccc(S(=O)(=O)Nc2nc3ccccc3nc2Nc2cccc(O)c2)cc1	?	5.5	12	-17	4	3	11
Cc1nc(-c2c(-c3ccc(O)cc3O)noc2C(F)(F)F)cs1	3164	-15	5	-23	-1	4	2
CCCCNC(=S)Nc1cccc2cnccc12	2496	4.6	13	-12	5	3	2
COc1ccc(NC(=O)C2CCN(C(=O)Cc3ccccc3)CC2)c(OC)c1	3273	0.6	3	-15	8	13	-1

(list continues)
Structure	Autofluor counter	Sa RN4220 lethal	Sa ugtP lethal	PrP UTR inh	BJeLR lethal	Mtb hypoxia rep	Mtb hypoxia rep growth
COc1ccc(OC)c(CN2CCN(CCc3ccccc3)C(CCO)C2)c1 (stereo unspecified)	2383	7.4	11	-5	15	1	-2
CN1CCC(OC(=O)C2c3ccccc3Oc3ccccc32)CC1	3069	1.1	8	-30	10	/	/
O=c1cc(CSc2ccc(Cl)cc2)nc(-c2ccccn2)[nH]1	3770	/	/	21	19	/	/
Cc1cccc(C(=O)N(C(=O)c2cccc(C)c2)N(C)C)c1	3078	6.9	7	-11	/	22	10
N#CCC(=O)Nc1ccc(C(=O)NCCC(c2ccccc2)c2ccccc2)cc1	3304	-0.2	20	31	-10	-18	-5
CNCC1Oc2c(NC(=O)Nc3ccccc3)cccc2C(=O)N(C(C)CO)CC1C (stereo unspecified)	/	-1.2	1	/	/	4	4
CC(=O)Nc1ccc(NC(=O)c2ccccc2CC[N+](=O)[O-])cc1	4998	3.7	0	-11	2	/	/
CCc1nnc(NC(=O)CSc2sc3c(O)cc(=O)[nH]c3c2C#N)s1	5734	4.1	3	-6	-3	4	1
CC(=O)N1c2ccc(S(=O)(=O)N3CCCCC3)cc2CC1C(=O)Nc1ccc(F)cc1C (stereo unspecified)	5793	1.2	4	-9	-14	5	1
Cc1ccc(S(=O)(=O)CC(=O)Nc2cc(C)on2)cc1	5223	0.5	-2	-26	-3	-7	3
COc1ccc(NC(=O)c2c(NC(=O)CNCc3ccco3)sc3c2CCC3)cc1	3291	-5.3	-16	-15	1	23	9
CCOCCOC(=O)C(C)Oc1ccc(Oc2nc(Cl)ccc2Cl)cc1 (stereo unspecified)	4109	9.0	12	-36	-3	20	7

(more compounds)
Structure	Autofluor counter	Sa RN4220 lethal	Sa ugtP lethal	PrP UTR inh	BJeLR lethal	Mtb hypoxia rep	Mtb hypoxia rep growth
Cc1ccccc1OCC(=O)Nc1nnc(-c2ccncc2)s1	4390	0.9	1	-2	-2	-1	-13
CCC1C(=O)N=C(SCC(=O)Nc2ccccc2)NC1=O (stereo unspecified)	3346	-12	-7	-15	-3	3	11
Cc1ccc(S(=O)(=O)N(C)C)cc1NC(=S)NC1CCCC(C)C1C (stereo unspecified)	7852	1.1	8	-25	-4	6	6
CCn1cc(C(=O)NCCCN2CC(C)CC(C)C2)c2cc(OC)c(OC)cc2c1=O (stereo unspecified)	3556	5.8	11	-6	-8	16	5
O=C(O)c1ccc2c(c1)C(=O)N(c1cccc(-c3nc4ccccc4s3)c1)C2=O	2664	/	/	-28	-4	/	/
CCN(CC)CCOc1ccc(Br)cc1	5157	0.9	7	-16	-7	8	4
O=[N+]([O-])c1ccc(N2CCOCC2)cc1SCc1ccco1	2300	3.2	-5	-12	-1	11	4
COc1ccc(C2C(C(=O)Nc3cccnc3)=C(C)Nc3nc(-c4ccco4)nn32)cc1 (stereo unspecified)	6082	-0.1	4	-11	-3	/	/
CCOC(=O)Nc1sc2nc(C)cc(C)c2c1-n1cccc1	2621	-1.5	-3	-10	-2	/	/
Cc1ccc(OCCNC(=O)CCNS(=O)(=O)c2ccc(C)cc2)cc1	5502	2.3	9	-30	-11	3	-10
CN1CCN(C(=O)CCc2nnc3ccc(N4CCC5(CC4)OCCO5)nn23)CC1	5569	2.3	13	-20	-1	13	1
CC(=NNc1ccc([N+](=O)[O-])cc1)c1ccc(N)cc1	/	2.2	-7	/	/	14	2

(more compounds)
Structure	Autofluor counter	Sa RN4220 lethal	Sa ugtP lethal	PrP UTR inh	BJeLR lethal	Mtb hypoxia rep	Mtb hypoxia rep growth
CC(=O)Oc1cccc(N2C(=O)C3CC=C(Cl)CC3C2=O)c1 (stereo unspecified)	2960	2.9	-2	-32	8	6	9
CCOC(=O)CNC(=O)C1CCC(CNS(=O)(=O)c2cccc3nsnc23)CC1 (stereo unspecified)	3990	2.8	6	-12	0	-8	-4
COc1ccc(C(c2sc3ncnn3c2O)N2CCN(c3ccccc3F)CC2)cc1OC (stereo unspecified)	5349	-0.9	6	-6	13	-2	-1
COc1ccc(OC)c(N2C(N)=NC(N)=NC23CCCC3)c1	4162	-0.4	4	-17	-2	/	/
Cc1ccc(C(=O)COC(=O)C(C)N2C(=O)C3C4CCC(C4)C3C2=O)cc1 (stereo unspecified)	6663	/	/	-21	2	/	/
COC(=O)c1cc2sccc2n1CC(=O)Nc1ccc(OC)c(OC)c1OC	9504	-4.4	-9	-26	-12	-10	-6
CC(=O)N1CCN=C1SCc1ccc(C(F)(F)F)cc1	4061	-0.4	3	-7	-2	5	4
CC1CCN(C(=O)c2ccc(CSc3nc4ccncc4n3Cc3ccc(F)cc3)cc2)CC1	5755	0.7	2	-6	3	12	3
Fc1ccccc1N1CCN(c2cnc3ccccc3n2)CC1	2864	-12	-3	-81	13	7	8
O=C(Cc1ccc(Cl)cc1)Nc1ccc2oc(-c3ccncc3)nc2c1	4140	4.1	-1	-6	13	/	/

Ordered by length of the SMILES (largest number first): some entries from above.
Structure	Autofluor counter	Sa RN4220 lethal	Sa ugtP lethal	PrP UTR inh	BJeLR lethal	Mtb hypoxia rep	Mtb hypoxia rep growth
CCOC(=O)CNC(=O)C1CCC(CNS(=O)(=O)c2cccc3nsnc23)CC1 (stereo unspecified)	3990	2.8	6	-12	0	-8	-4
O=C(Cc1ccc(Cl)cc1)Nc1ccc2oc(-c3ccncc3)nc2c1	4140	4.1	-1	-6	13	/	/
CC(=O)Oc1cccc(N2C(=O)C3CC=C(Cl)CC3C2=O)c1 (stereo unspecified)	2960	2.9	-2	-32	8	6	9
CC(=O)N1CCN=C1SCc1ccc(C(F)(F)F)cc1	4061	-0.4	3	-7	-2	5	4

Compound activity: PubChem BioAssay, several laboratories
